Screening results deposited in PubChem BioAssay by Fisher Drug Discovery Resource Center.
NPYLR7 agonist: activates Aedes aegypti NPYLR7 receptor | 270,000 compounds, 0.15% hits | activation, % at 10 µM | HEK293T NPYLR7/Galpha15, GCaMP6s calcium fluorescence | AID 1259423; in the data active = activation above about 40%;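 note: 0% = vehicle and 100% = reference agonist at the receptor; some compounds past the cut are filed as inactive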
NPYLR7 agonist max-min: second read-out of NPYLR7 agonist, no call of its own (marks repeat the call); activation, %; measured here: Max-Min RFU normalised activation; some inactives read as strong as hits;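 span of the calcium signal over five minutes; 0% = vehicle and 100% = native peptide agonist; compound fluorescence can raise it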
The depositor's hits bear a star; & = joins results of further samples. These rows are one share of the data, so the mix of outcomes need not match the whole.

Below each compound: NPYLR7 agonist, NPYLR7 agonist max-min
1) CC1CCc2c(sc3ncnc(NCCOCCO)c23)C1 (centres undefined)
  0, -2
2) OC(CNc1ncc(Cl)cc1F)CN1CCOCC1 (centres undefined)
  0, 55
3) Cc1ccc(CCNC(=O)c2cccnc2Nc2cccc(C)c2C)cc1
  -15, -19
4) Cc1cc(C2=NNC(=Nc3ccc(F)cc3)SC2)c(C)n1CC1CCCO1 (centres undefined)
  0, 1
5) Cc1nc(N2CCN(C(=O)C3CCCO3)CC2)cc(-n2cccn2)n1 (centres undefined)
  -10, -13
6) C=CCNC(=O)c1ccccc1NC(=O)C1CC(=O)N(c2ccc(OC(C)C)cc2)C1 (centres undefined)
  5, 14
7) Cc1csc2nc(=O)c(-c3ccccc3NC(=O)C(C)c3ccccc3)nn12 (centres undefined)
  -5, -7
8) CN(C)S(=O)(=O)c1ccc(C(=O)Nc2c3c(nn2C(C)(C)C)CSC3)cc1
  -2, -4
9) Cc1ccc(NS(=O)(=O)c2ccc(C)cc2)cc1
  0, -2
10) Cc1cc(-c2nccn2CCc2ccncc2)oc1C
  -4, -5
11) COc1cccc(OC)c1-c1ccc(-n2cncc2C(=O)NCCSCc2ccccc2)cc1
  16, 14
12) Cc1ccc(S(=O)(=O)NCC2CCN(S(=O)(=O)C3CC3)CC2)cc1C
  -8, -10
13) CCOC(=O)N1CCN(Cc2nc(N3CCSCC3)c3cc(C)ccc3n2)CC1
  7, 1
14) O=C(NCCO)c1cc2n(n1)CCN(Cc1ccc3ccccc3n1)C2
  1, -8
15) COc1cc(OC)nc(NC(=O)CNc2ccc(Br)cc2)n1
  12, 10
16) CCc1nc(C)c2c(N)c(C(=O)Nc3cc(Cl)ccc3C)sc2n1
  8, 2
17) O=C(CN1CN(c2ccccc2)C2(CCN(C(=O)C34CC5CC(CC(C5)C3)C4)CC2)C1=O)NCc1cccc(C(F)(F)F)c1
  19, 23
18) C#C[C@]1(O)CCC2C3CCC4=CC(=O)CC[C@@H]4C3CC[C@@]21C (some centres undefined)
  -11, -26
19) COCc1ncc(CN(C)Cc2cccc3ncccc23)cn1
  2, 2
20) N#CC1(c2ccccc2)CCN(C(=O)C2CCCCC2C(=O)N[C@@H](Cc2c[nH]c3ccccc23)C(N)=O)CC1 (some centres undefined)
  -4, -13
21) O=C(c1ccc(-n2cnc3ccccc32)cc1)N1CCN(S(=O)(=O)c2ccc3c(c2)CCC3)CC1
  -5, -8
22) O=C(Nc1cc(Cl)c(Cl)cn1)C1CC2CCC1O2 (centres undefined)
  -3, -4
23) COC(=O)c1ccccc1C1CCN(C(=O)C2CC(=O)N(Cc3ccc(Cl)cc3)C2)CC1 (centres undefined)
  3, 4
24) CN1CCN(c2ccc(C(F)(F)F)cc2NS(=O)(=O)c2ccccc2)CC1
  3, -4
25) Cc1cc(C)n2c(NC3CCCCC3)c(-c3cccc(F)c3)nc2n1
  -12, -12
26) COCCOc1ccc(CNC(=O)CCc2ccsc2)cn1
  2, 1
27) CCOC(=O)C1CCN(C(=O)CCc2csc3nc(-c4ccc(OC)cc4)cn23)CC1
  4, 3
28) CCCCn1c(=O)c2c(nc3n2CC(C)=NN3CC(=O)OCC)n(C)c1=O
  7, 10
29) CCc1nc(N(CCC(=O)Nc2cccc(F)c2)Cc2ccccc2)c2ccc(Cl)cc2n1
  14, 23
30) Cc1cc(C(=O)Nc2cc(Cl)ccc2CS(C)(=O)=O)c(C)o1
  5, 1

Next part, overlapping the part above by 4 compounds.
Below each compound: NPYLR7 agonist, NPYLR7 agonist max-min
27) CCOC(=O)C1CCN(C(=O)CCc2csc3nc(-c4ccc(OC)cc4)cn23)CC1
  4, 3
28) CCCCn1c(=O)c2c(nc3n2CC(C)=NN3CC(=O)OCC)n(C)c1=O
  7, 10
29) CCc1nc(N(CCC(=O)Nc2cccc(F)c2)Cc2ccccc2)c2ccc(Cl)cc2n1
  14, 23
30) Cc1cc(C(=O)Nc2cc(Cl)ccc2CS(C)(=O)=O)c(C)o1
  5, 1
31) CC(C)C(NCc1c(O)ccc2c1oc(=O)c1ccccc12)C(=O)O (centres undefined)
  -4, -12
32) COc1ccc(Cl)cc1N(CC(=O)N1CCC(C)CC1)S(=O)(=O)c1ccc(C)c([N+](=O)[O-])c1
  10, 13
33) O=C(Nc1nc(-c2ccc(Cl)c(Cl)c2)cs1)c1ccc([N+](=O)[O-])s1
  -1, -6
34) Cc1cc(C2C=CNC=N2)c(C)s1 (centres undefined)
  -5, -7
35) Cc1ccccc1NC(=O)c1cccn(OCc2ccc(F)cc2)c1=O
  4, 5
36) Cc1ccc(O)c(S(=O)(=O)N2CCOc3ccccc32)c1
  7, 4
37) COc1ccc(-c2nnc(SCC(=O)NNC(=O)/C=C/C(=O)O)n2-c2ccccc2)cc1OC
  -3, -8
38) CC(=O)Nc1nc(C(=O)N(Cc2ccccc2)C2CCCC2(C)C)cs1 (centres undefined)
  17, 18
39) COc1ccccc1N1CCN(CC(O)COc2ccc(F)cc2)CC1 (centres undefined)
  1, -3
40) O=C(O)c1ccc(S(=O)(=O)CC(F)(F)F)cc1
  10, 7
41) CCOC(=O)c1ccccc1NC(=O)CSc1nccn2nc(-c3ccccc3OC)cc12
  -5, -12
42) c1cc(-c2n[nH]c(C3CCCCC3)n2)c2cccnc2c1
  8, 6
43) COc1ccc(OC)c(-c2ccc3nc(C)ccc3c2)c1
  -5, -9
44) COc1ccc(CCC(=O)N2CCCC(O)(CO)C2)cc1OC (centres undefined)
  -2, -9
45) CCc1ccc(NC(=O)c2c(-c3ccccc3Cl)noc2C)cc1
  -3, -4

Compound profiles, as listed above. Screens in order: NPYLR7 agonist, NPYLR7 agonist max-min
`COc1ccccc1N1CCN(CC(O)COc2ccc(F)cc2)CC1` (centres undefined) is entered as 1, -3
`c1cc(-c2n[nH]c(C3CCCCC3)n2)c2cccnc2c1` is entered as 8, 6
`COc1ccc(OC)c(-c2ccc3nc(C)ccc3c2)c1` is entered as -5, -9
`O=C(O)c1ccc(S(=O)(=O)CC(F)(F)F)cc1` is entered as 10, 7

Continued:
Below each compound: NPYLR7 agonist, NPYLR7 agonist max-min
46) COc1ccc(CCN2C(=O)c3ccccc3NC2c2cccc(O)c2O)cc1 (centres undefined)
  13, 2
47) CC(=O)NCC1CCCN(Cc2ccc(C)c(F)c2C)C1 (centres undefined)
  -1, 3
48) CC1CN(S(=O)(=O)c2cc(C(=O)O)ccc2F)CC(C)O1 (centres undefined)
  2, -1
49) CCCNC(=O)NC12CC3CC(CC(C3)C1)C2
  5, 5
50) CCOCCOC(=O)C1=C(C)NC(=O)NC1c1ccccc1F (centres undefined)
  -6, -9
51) CCn1nnc2cc(C(=O)N3CC=C(c4ccc(OC)cc4)CC3)ccc21
  0, 4
52) Cn1nnnc1SC1CCN(c2ccccc2Cl)C1=O (centres undefined)
  -3, -7
53) CC(=O)Nc1nc(SCC(=O)NC2CCCCC2)[nH]c(=O)c1NC(=O)c1ccc(F)cc1
  -5, -1
54) COc1ccc(-c2cccc(NC(=O)C(F)(F)F)c2)nn1
  -1, -3
55) Cc1cc(=O)n(-c2cc(S(=O)(=O)O)c3cccc(S(=O)(=O)O)c3c2)[nH]1
  4, 6
56) CCC1(c2ccccc2)C(=O)NCNC1=O
  -3&-7&-1&0, -9&-10&-5&12
57) CCCN(CC#Cc1ccccc1)C(=O)c1cccnc1
  -2, -4
58) Cc1nc2c(-c3ccccc3)c(C)nn2c(N2CCOCC2)c1Cc1ccccc1
  -4, -8
59) Cc1ccccc1CSc1nc(=O)n(CCCO)c2c1CCCC2
  -5, -16
60) COC(=O)Cn1ncc2c(N3CCCCC3CCC(C)C)ncnc21 (centres undefined)
  0, -2

An excerpt of these results, field by field.
47. CC(=O)NCC1CCCN(Cc2ccc(C)c(F)c2C)C1 (centres undefined)
  NPYLR7 agonist: -1
  NPYLR7 agonist max-min: 3
55. Cc1cc(=O)n(-c2cc(S(=O)(=O)O)c3cccc(S(=O)(=O)O)c3c2)[nH]1
  NPYLR7 agonist: 4
  NPYLR7 agonist max-min: 6
49. CCCNC(=O)NC12CC3CC(CC(C3)C1)C2
  NPYLR7 agonist: 5
  NPYLR7 agonist max-min: 5
50. CCOCCOC(=O)C1=C(C)NC(=O)NC1c1ccccc1F (centres undefined)
  NPYLR7 agonist: -6
  NPYLR7 agonist max-min: -9

Further records
Below each compound: NPYLR7 agonist, NPYLR7 agonist max-min
61) COc1ccc(CCN(C)C(=O)c2cc(-c3ccc(C)c(C)c3)nn2-c2cccc(Cl)c2)cc1OC
  0, 7
62) O=C(O)c1ccc([N+](=O)[O-])s1
  20, 11
63) CCOC(=O)c1nn(-c2ccccc2)c(=O)cc1OS(=O)(=O)c1ccc2ccccc2c1
  2, 3
64) Cc1ccc(-n2nc(C)cc2NC(=O)C2CC(=O)N(c3ccc4c(c3)OCO4)C2)cc1 (centres undefined)
  6, 2
65) COc1ccc(C(=O)NC2CCN(c3ccccc3C(=O)NCc3cccnc3)CC2)cc1
  -9, 8
66) O=C(NC1CCC(NC(=O)[C@H]2CCCN2C(=O)c2ccc(C(F)(F)F)cc2)CC1)c1ccccc1 (some centres undefined)
  -1, 2
67) CN1C(=O)C2(SCC(=O)N2c2ccc(F)c(F)c2)c2ccccc21 (centres undefined)
  1, -4
68) CC(C)(C)CC(=O)N1CCN(c2ccc(Nc3ccccc3)nn2)CC1
  -2, -4
69) COc1cccc(-c2nc3ccc(-c4cccc(Cl)c4)cn3c2CN2CCNCC2)c1
  17, 14
70) O=C(Cc1cccs1)Nc1nnc(SCC(=O)c2cccc(C(F)(F)F)c2)s1
  6, 15
71) COc1cccc(C(=O)NCc2cccc(-c3ncc(-c4cccc(OC)c4)[nH]3)c2)c1
  5, 2
72) CCn1nnc2c(=S)nc[nH]c21
  -3, 1
73) Cc1nccn1-c1cc(N2CCN(S(=O)(=O)c3cccs3)CC2)ncn1
  -12, -10
74) CCN(CC)S(=O)(=O)c1ccc(Cl)c(C(=O)NC(C)CCC(C)C)c1 (centres undefined)
  -4, -5
75) CC1CC1C(=O)NCCC(=O)NCCS(=O)(=O)c1ccc(Cl)cc1 (centres undefined)
  1, 0

Copied from the list.
cpd 66 – NPYLR7 agonist: -1
cpd 68 – NPYLR7 agonist: -2
cpd 65 – NPYLR7 agonist: -9
cpd 73 – NPYLR7 agonist max-min: -10
cpd 63 – NPYLR7 agonist max-min: 3
cpd 72 – NPYLR7 agonist: -3
cpd 69 – NPYLR7 agonist max-min: 14

Next section
Below each compound: NPYLR7 agonist, NPYLR7 agonist max-min
76) Cc1cccc(NC(=O)CNC(=O)CNCc2ccccc2)c1
  -4, -7
77) C=CCn1c(SCCCCN2C(=O)c3ccccc3C2=O)nc2sc3c(c2c1=O)CCC3
  -5, -11
78) NC(=O)c1ccc2c(c1)ncn2-c1ccccc1
  1, 0
79) O=C(c1ccc2c(c1)OCCCO2)N1CCN(c2ccccc2Cl)CC1
  -14, -12
80) Cc1cc(N2CCSCC2)ccc1NC(=O)C1Oc2ccccc2OC1C (centres undefined)
  9, 7
81) N#Cc1c(SCc2ccc(F)cc2)nc2c(c1-c1cccs1)CCCC2
  -5, -7
82) CCOC(=O)c1ccc(NC(=O)c2ccc(C)c(S(=O)(=O)N3CCOCC3)c2)s1
  5, 2
83) CCn1c(=O)c(C(=O)Nc2ccc(F)cc2)nn(-c2ccccc2F)c1=O
  -1, 4
84) CC(C)(NC(=O)c1cccs1)C(=O)NCC(O)c1ccccc1 (centres undefined)
  4, -2
85) CCOc1ccc(NC(=O)c2sc3nc4c(c(-c5ccccc5)c3c2N)C(=O)CC(C)(C)C4)cc1
  -2, -6
86) COc1ccc(OCc2ccc(-c3nc(C#N)c(NCCN4CCOCC4)o3)o2)cc1
  -1, 5
87) O=C(c1ccc(Cl)cc1Cl)N1CCCC(N2CCN(c3ccccc3F)CC2)C1 (centres undefined)
  0, 6
88) O=C(CCn1c(=O)oc2ccccc21)Nc1ccc(S(=O)(=O)Nc2nccs2)cc1
  6, 11
89) CC(C)(C)C(=O)OCCN1C(=O)c2cccc3c(N4CCOCC4)ccc(c23)C1=O
  -3, -4
90) CC(C)c1ccc(NC(=O)C(C2CCCC2)N2CCN(C(=O)c3ccc(F)cc3F)CC2)cc1 (centres undefined)
  -3, 0
91) CC(C)c1cc(C2CCN(Cc3ccc(-c4ccn[nH]4)o3)CC2)[nH]n1
  28, 15
92) CN(C)c1cc(-c2ccccc2)nc(SCc2cccc(C(=O)O)c2)n1
  11, 14
